Compound activity (PubChem BioAssay)
Rango-impB inh – Rango-importin beta binding inhibition | Q14974 | Rango CFP/YFP FRET sensor + importin beta, 45 min | Potency, µM (doses to about 92.2 µM), for the others: at the highest dose inhibition of complex formation | 340,000 compounds, 0.031% hits; active = rising FRET ratio curve, often small or poorly fitted; inconclusive = mostly compound fluorescence or quenching in the first reads; inactive = flat curves in all reads;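 further: potency means the concentration at half of the fitted maximal effect; 0% = DMSO wells and 100% = buffer wells lacking importin beta; nearly all actives have a fitted effect of over 15% in size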
Target sequence (Q14974 whole entry, looked up): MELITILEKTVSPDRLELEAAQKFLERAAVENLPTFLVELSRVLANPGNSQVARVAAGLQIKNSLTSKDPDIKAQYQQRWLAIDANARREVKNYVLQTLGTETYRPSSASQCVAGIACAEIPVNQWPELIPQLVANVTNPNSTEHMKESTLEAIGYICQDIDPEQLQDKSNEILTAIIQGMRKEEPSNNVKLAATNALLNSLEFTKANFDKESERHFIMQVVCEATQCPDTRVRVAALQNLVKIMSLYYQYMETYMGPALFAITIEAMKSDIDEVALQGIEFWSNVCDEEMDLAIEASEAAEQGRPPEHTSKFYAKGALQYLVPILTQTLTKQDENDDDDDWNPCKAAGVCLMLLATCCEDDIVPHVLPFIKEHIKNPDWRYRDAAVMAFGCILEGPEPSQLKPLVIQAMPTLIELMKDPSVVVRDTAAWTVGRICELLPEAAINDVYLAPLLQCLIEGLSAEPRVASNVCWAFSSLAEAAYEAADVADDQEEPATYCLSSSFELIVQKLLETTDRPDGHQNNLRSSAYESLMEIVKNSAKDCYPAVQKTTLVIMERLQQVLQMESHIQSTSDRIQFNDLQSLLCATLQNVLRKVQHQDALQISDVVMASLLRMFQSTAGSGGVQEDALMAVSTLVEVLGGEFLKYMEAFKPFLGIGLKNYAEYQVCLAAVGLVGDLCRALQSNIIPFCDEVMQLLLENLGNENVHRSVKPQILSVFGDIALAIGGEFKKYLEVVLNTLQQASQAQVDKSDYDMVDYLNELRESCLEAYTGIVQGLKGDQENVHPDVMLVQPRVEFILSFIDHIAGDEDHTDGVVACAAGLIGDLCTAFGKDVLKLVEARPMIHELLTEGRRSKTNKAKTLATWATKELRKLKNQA
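Inhibition scored from the CFP 486 nm/YFP 530 nm FRET ratio 45 min after adding 0.125 microM importin beta to 50 nM Rango biosensor preincubated 5 min with compound (room temperature, PBS with DTT, Tween-20, BSA). No-importin wells as positive control.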
Rango dissoc inh – inhibition of RanGTP-driven Rango-importin beta dissociation; O95149+P62826; 340,000 compounds, 0.071% hits; AID 540253; Potency, µM (titrated, usually from 46.1 µM), for the others: at the highest dose activity change, negative = inhibition; Biochemical FRET Rango-importin beta, RanGTP-induced dissociation; active means falling FRET ratio curve, often poorly fitted, with flat reads before Ran was added; inconclusive means other falling curves, or compound fluorescence or quenching; inactive means flat or rising ratio curve;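 further: potency means the concentration at half of the fitted maximal effect; % of control where 0% means no effect; nearly all actives have a fitted effect of over 45% in size; -100% = wells without RanGTP and RCC1; the record marks most hits as doubtful in a second field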
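Rango FRET biosensor (snurportin-1 IBB flanked by N-terminal EYFP and C-terminal CFP10) at 0.1 uM, with 0.25 uM importin beta in PBS, 1mM DTT, 0.02% Tween-20, 0.1% BSA. 0.6 uM Ran, 2mM GTP and 0.2 uM RCC1 were then added for 45 min at room temperature. Inhibition read as loss of FRET rise.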
miR-21 FLuc – raises the signal of a miR-21 reporter; HeLa miR-21 FLuc reporter, luciferase, 48 h; Potency, µM (titrated, usually from 38.3 µM), for the others: top-dose reporter change, positive = more light; 340,000 tested, under 10 active; active = well fitted rising curve with a large enough effect; inconclusive = small, poorly fitted or top-dose-only effect; inactive = no such curve, though single readings can be large or run the other way;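 further: % of control where 0% means no effect; miR-21 action dims this reporter so a rising signal means less miR-21 action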
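HeLa cells endogenously expressing miR-21, stably carrying CMV-driven firefly luciferase with a downstream miR-21 binding site, 2000 cells/well. Titrations up to approximately 40 uM, 48 hours; luciferase luminescence read.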
GLA inh pH 4.5 – alpha-galactosidase A (human) inhibition, pH 4.5; P06280; purified enzyme, 4-MU-alpha-Gal fluorescence, pH 4.5; activity change, negative = inhibition, % at 105 µM; 230,000 tested, under 10 active; AID 1467; inconclusive = small, poorly fitted or top-dose-only inhibition, or a rising curve; inactive = flat fitted curve, though single readings scatter; no compound was filed as active;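 further: 0% = full activity with enzyme and -100% = basal without enzyme; dose as in the result columns while the protocol names 77 µM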
The depositor's hits bear a star; ? = inconclusive; / = no result given; [ ] = dose if it differs, or a comment. The list is partial; count on the stated rates, not on these rows.

SMILES	Rango-impB inh	Rango dissoc inh	miR-21 FLuc	GLA inh pH 4.5
CCOc1ccc(CCNC(=O)COC(=O)C2CCN(S(=O)(=O)c3ccccc3)CC2)cc1OCC	-2.1%	-1%	/	/
CC1(C)CC(=O)C([N+](=O)[O-])=C(NCCCC(=O)O)C1	0.0%	1%	0%	5
COc1cccc(CN(C)C(=O)CNC(=O)c2cccs2)c1OC	-4.8%	-3%	/	/
COc1ccc(S(=O)(=O)N2CCOCC2)cc1NC(=O)C1CCCN1C(=O)c1cccs1 (configuration not stated)	5.3%	11%	/	/
O=C(Nc1cccc(S(=O)(=O)N2CCCCC2)c1)C1CC(=O)N(Cc2ccccc2)C1 (configuration not stated)	7.8%	11%	/	/
COc1ccc(C2(CO)OC(CO)C(O)C2O)cc1 (configuration not stated)	0.1%	9%	/	/
O=C(NCCOC(=O)c1cccs1)c1cccnc1	0.7%	17%	-6%	8
COc1ccccc1CNC(=O)CN1CCN(c2ccc(C(C)=O)cc2)CC1	1.1%	-2%	0%	/
COC(=O)C1=C(C)N(CCCC(=O)O)C(=O)NC1c1ccc2c(c1)OCO2 (configuration not stated)	4.2%	-13%	/	/
Cc1nc(SCC(=O)N2CCOCC2)c2c(=O)n(C)c(=O)n(CC(C)C)c2n1	-3.5%	1%	/	/
Cc1cc(F)ccc1NCC(=O)Nc1ccccc1Br	0.5%	8%	-37%	1
CC(Nc1ccc([N+](=O)[O-])cc1[N+](=O)[O-])c1ccccc1 (configuration not stated)	-0.6%	1%	/	/
Cc1cccc(NC(=O)Cn2nc([N+](=O)[O-])c(Br)c2C)n1	2.1%	23%	4%	-3
NNC(=O)/C(=C\c1cccs1)NC(=O)c1ccccc1	1.6%	-10%	5%	2
O=C(CCCn1c(=S)[nH]c2cc3c(cc2c1=O)OCO3)N1CCc2ccccc2C1	-2.7%	0%	-2%	3
CCOC(=O)CSc1nnc(NC(=O)c2cc([N+](=O)[O-])cc([N+](=O)[O-])c2)s1	4.3%	8%	0%	-1
Cc1cc(C(=O)N2CC=C(c3ccccc3)CC2)c2ccccc2n1	-1.1%	14%	/	/
Cc1ccc(C)c(OCC(=O)Nc2ccc(S(=O)(=O)Nc3ncccn3)cc2)c1	2.7%	-1%	-6%	/
CC(NC(=O)CNC(=O)C(Cc1ccccc1)NC(=O)OCc1ccccc1)C(N)=O (configuration not stated)	0.4%	-9%	-2%	0
CCc1cccc2c1NC(=O)[C@]21[C@@H]2C(=O)N(Cc3ccccc3)C(=O)[C@@H]2[C@@H]2CCCN21	0.2%	-21%	-2%	-2
C#CCN(CC=C)C(=O)C1CCC(=O)N(CCCc2ccccc2)C1 (configuration not stated)	0.0%	1%	-8%	/
NC(=S)N=Nc1c(O)[nH]c2c(Cl)cc(Cl)cc12	7.8%	5%	/	/
CCOc1ccc(NC(=O)N(Cc2ccc(C)cc2)Cc2ccccn2)cc1	-2.1%	-4%	-4%	/
CCCCNC(=O)CN1C(=O)NC(Cc2ccccc2)(Cc2ccccc2)C1=O	-0.8%	-12%	1%	/
Cc1[nH]c(=O)[nH]c(=O)c1/C=C/C(=O)O	-4.6%	23%	-4%	14

Structural class, those above with a halogen
SMILES	Rango-impB inh	Rango dissoc inh	miR-21 FLuc	GLA inh pH 4.5
Cc1cc(F)ccc1NCC(=O)Nc1ccccc1Br	0.5%	8%	-37%	1
Cc1cccc(NC(=O)Cn2nc([N+](=O)[O-])c(Br)c2C)n1	2.1%	23%	4%	-3
NC(=S)N=Nc1c(O)[nH]c2c(Cl)cc(Cl)cc12	7.8%	5%	/	/

More results:
SMILES	Rango-impB inh	Rango dissoc inh	miR-21 FLuc	GLA inh pH 4.5
Cn1c(/C=C/c2cccc(Br)c2)nc2ccccc2c1=O	-2.5%	0%	-35%	/
CC1(C)CCC(=O)C=C1Nc1ccc(F)c(Cl)c1	3.9%	-12%	-1%	/
CC(C)NC(=O)c1onc(CSc2ccc(F)c(F)c2)c1C(=O)NC(C)C	-0.7%	-1%	/	/
CCCNC(=O)COC(=O)c1c2c(nc3ccccc13)CCC2	1.7%	-6%	2%	/
CCOC(=O)c1ccc(NS(=O)(=O)c2cc(C)ccc2OC)cc1	0.7%	-8%	4%	1
CCOC(=O)CSc1nc2ccc(N3CCOCC3)cc2c(=O)n1Cc1ccccc1	?	-26%	-23%	-10
Cc1ccccc1-n1nc2c(c1NC(=O)c1c(-c3ccccc3Cl)noc1C)CS(=O)(=O)C2	-0.6%	5%	-7%	-4
O=C(CO)C(O)C(O)C(O)CO (configuration not stated)	0.5%	-3%	/	/
Cc1ccc(NC(=O)COc2nc(C)cs2)cc1	1.9%	-19%	-6%	7
O=C(COC(=O)CSc1ccccc1)NCCNC(=O)COC(=O)CSc1ccccc1	2.8%	0%	/	/
COC(=O)C1=C(C)NC(=O)CC1c1ccccc1OC (configuration not stated)	0.2%	8%	0%	2
CCN(CC)c1ccc(NC(=O)c2ccc3c(c2)OCO3)c(C)c1	-1.0%	-5%	0%	/
Cc1ccc(S(=O)(=O)N2CCN(C(=O)c3ccccc3)CC2)cc1	-3.7%	10%	1%	2
CC(=O)Nc1ccc(S(=O)(=O)NCCC(=O)Nc2ncccc2C)cc1	-1.1%	2%	/	/
O=C(NNc1cccc(Cl)n1)c1ccc(Cl)cc1Cl	-2.1%	-5%	-39%	5
CCNc1nc(N)nc(Oc2ccc(OCCOc3ccccc3)nn2)n1	-0.3%	20%	-21%	4
COc1ccccc1NC(=O)CN1CCN(CC(=O)Nc2ccc(OC)c(OC)c2)CC1	0.4%	-7%	-5%	/
COc1ccc(/C=C2/CCC(CN3CCOCC3)C2=O)cc1 (configuration not stated)	-0.8%	-5%	/	/
CCOc1ccc(NC(=O)C(C)Oc2ccc(C#N)cc2)cc1S(=O)(=O)N1CCCC1 (configuration not stated)	-2.0%	-3%	/	/
N#C/C(=C/c1ccccc1[N+](=O)[O-])C(=O)NCc1ccco1	?	?	-1%	-4
COc1cc(/C=C2\SC(=S)N(CCC(=O)Nc3ccc(O)cc3)C2=O)cc(OC)c1OC	6.0%	-17%	15%	/
CCCn1c(N2CCN(CC(=O)c3c(C)n(C)c4ccc(OC)cc34)CC2)nc2c1c(=O)[nH]c(=O)n2C	-5.2%	1%	-8%	6
COc1ccc(NC(=O)Nc2cc(C)ccc2F)cc1OC	3.0%	1%	-42%	4
O=C(CN(C(=O)c1csnn1)c1ccc(F)cc1)NCCc1ccccc1	-2.2%	1%	5%	/
N#C/C(=C/c1cc[nH]c1)C(N)=S	0.2%	-3%	-1%	-2

Sorted by formula weight (smallest number first): part of the list above.
SMILES	Rango-impB inh	Rango dissoc inh	miR-21 FLuc	GLA inh pH 4.5
Cn1c(/C=C/c2cccc(Br)c2)nc2ccccc2c1=O	-2.5%	0%	-35%	/
CC(=O)Nc1ccc(S(=O)(=O)NCCC(=O)Nc2ncccc2C)cc1	-1.1%	2%	/	/
O=C(CN(C(=O)c1csnn1)c1ccc(F)cc1)NCCc1ccccc1	-2.2%	1%	5%	/
CCOC(=O)CSc1nc2ccc(N3CCOCC3)cc2c(=O)n1Cc1ccccc1	?	-26%	-23%	-10

(list continues)
SMILES	Rango-impB inh	Rango dissoc inh	miR-21 FLuc	GLA inh pH 4.5
CCn1c(SCC(=O)N/N=C/c2ccc(O)c(OC)c2)nc2ccccc21	-0.3%	-18%	-2%	-11
O=C(CNCc1ccccn1)Nc1cc(C(F)(F)F)ccc1N1CCOCC1	5.3%	-6%	-11%	-2
COc1cccc(NC(=O)Cn2c(CCC(=O)O)ccc2-c2ccc(C)cc2)c1	-1.6%	?	-7%	0[21.1 µM]
COCCCNCCC(CCC(C)C)c1ccc2c(c1)OCO2 (configuration not stated)	-1.1%	-10%	-7%	-5
NC(Cc1ccc(Oc2ccc(O)cc2)cc1)C(=O)O (configuration not stated)	/	/	-3%	-4
COc1ccccc1C(=O)Nc1nnc(-c2ccc3c(c2)CCCC3)o1	1.1%	0%	-25%	2
CCOc1cc(N2CCOCC2)c(OCC)cc1NC(=O)c1cc(S(=O)(=O)N2CCOCC2)ccc1C	-1.0%	5%	/	/
O=c1[nH]cccc1-c1nc2ccccc2[nH]1	0.4%	-16%	-16%	/
CCOc1cc(NC(=O)c2cccs2)c(OCC)cc1NC(=O)c1cccnc1	-3.2%	-14%	-1%	2
O=C(N/N=C/c1cc(Br)cs1)c1ccccc1[N+](=O)[O-]	5.5%	21%	12%	-9
COc1ccc(C2Nc3ccccc3C(=O)N2Cc2ccccc2)cc1 (configuration not stated)	0.7%	-7%	-1%	/
Clc1cccc(N2CCN(Cc3ccc(Br)o3)CC2)c1	-1.5%	-12%	-1%	/
Cc1cccc(C)c1NC(=O)CNC(=O)c1c(C)nn(-c2ccccc2)c1Cl	-1.3%	1%	/	/
CCOc1cc(/C=C\c2nc(O)c([N+](=O)[O-])c(=O)[nH]2)ccc1OC(C)CC (configuration not stated)	-2.1%	12%	-2%	/
O=C(c1ccccc1)c1c(O)cc(-c2ccccc2)oc1=O	0.2%	-13%	-16%	-6
CCn1cc(CN(C)C(=O)/C=C/c2ccc([N+](=O)[O-])cc2)c(C)n1	5.0%	-3%	-9%	2
CCN1C(=O)[C@H]2[C@H]3CN=C(SCc4ccccc4)N3[C@@](CC)(C(=O)OC)[C@H]2C1=O	2.4%	6%	/	/
O=C(CSc1nnc(-c2ccc(Cl)s2)o1)N1CCCc2ccccc21	6.6%	-8%	-2%	-9
COc1ccc(C2C(C(C)=O)=C(O)C(=O)N2CCc2c[nH]c3ccccc23)cc1 (configuration not stated)	2.6%	26%	-26%	-6
CC1CCCCC1NC(=O)C1CCN(S(=O)(=O)c2ccc(-n3cnnn3)cc2)CC1 (configuration not stated)	1.7%	10%	1%	6
COc1cccc(CNC(=O)c2cnc(-c3ccccn3)nc2C(F)(F)F)c1	3.0%	7%	0%	0
COc1ccc2nc(SCC(=O)Nc3c(C)cccc3C)[nH]c2c1	-1.7%	4%	-2%	0
O=C(c1ccc(F)cc1)N1CCCC(C(=O)N2CCc3ccccc3C2)C1 (configuration not stated)	-1.2%	6%	0%	-3
O=C(CCCCn1c(=O)[nH]c2ccccc2c1=O)NC1CCN(Cc2ccccc2)CC1	5.8%	7%	-3%	1
NS(=O)(=O)c1ccc(NC(=O)C2CCCO2)cc1 (configuration not stated)	3.3%	5%	-1%	1

The results go on:
SMILES	Rango-impB inh	Rango dissoc inh	miR-21 FLuc	GLA inh pH 4.5
COc1cc(-c2noc(C)c2C(=O)NCCCn2ccnc2)cc(OC)c1OC	-4.6%	1%	/	/
CC(C)n1cnnc1SCC(=O)NCC(=O)Nc1ccc(F)cc1	-2.4%	2%	/	/
C#Cc1ccc(CN2CCC(C(=O)Nc3ccc(Oc4ccccc4)nc3)CC2)cc1	2.5%	-4%	18%	/
Cc1ccc(NS(=O)(=O)c2ccc(C)c(C(=O)N3CCOCC3)c2)cc1	0.7%	-10%	-3%	/
Cc1cccc2sc(NNC(=O)c3ccc4c(c3)OCCO4)nc12	1.4%	-3%	-22%	-1
O=C(Nc1ccccc1C(=O)O)c1cccc(N2C(=O)c3ccccc3C2=O)c1	?	-1%	0%	/
O=S(=O)(NC1CC1)c1ccc2c3c(cccc13)CC2	3.2%	-3%	2%	-7
CCCC(C(=O)NC1CCCC1)N(Cc1ccc(F)cc1)C(=O)c1snc(C(N)=O)c1N (configuration not stated)	-2.0%	-4%	5%	/
Cc1ccnc(NS(=O)(=O)c2ccc(NS(C)(=O)=O)cc2)n1	-0.9%	-5%	2%	6
Cn1cc(CN2CCN(Cc3ccccc3)CC2)c(-c2cccc(Cl)c2)n1	1.3%	6%	-3%	-24
NC(=O)/C(=C/c1ccc2c(c1)OCO2)NC(=O)c1ccco1	-1.1%	-2%	-2%	7
CCOc1ccc2nc(SCC(=O)NC3CCS(=O)(=O)C3)[nH]c2c1 (configuration not stated)	2.7%	-12%	0%	5

As a working copy, some entries already given.
SMILES	Rango-impB inh	Rango dissoc inh	miR-21 FLuc	GLA inh pH 4.5
NC(=O)/C(=C/c1ccc2c(c1)OCO2)NC(=O)c1ccco1	-1.1%	-2%	-2%	7
CCOc1ccc2nc(SCC(=O)NC3CCS(=O)(=O)C3)[nH]c2c1 (configuration not stated)	2.7%	-12%	0%	5
